# Assay outcomes deposited in PubChem by National Center for Advancing Translational Sciences (NCATS).
# VDR inh – inhibitors of human vitamin D receptor; Potency, µM, for inactives: max response, negative = inhibition, usual class: inhibitors; P11473; hit rate 0.93% among 400,000; VDR-SRC2-3 peptide fluorescence polarization, 2 h; active = well fitted inhibition curve with a large enough effect; inconclusive = small, poorly fitted or top-dose-only effect, or another doubt; inactive = no such curve, though single readings can be large or run the other way; note: series mostly up to about 120 µM
# Target sequence (P11473 whole entry, looked up): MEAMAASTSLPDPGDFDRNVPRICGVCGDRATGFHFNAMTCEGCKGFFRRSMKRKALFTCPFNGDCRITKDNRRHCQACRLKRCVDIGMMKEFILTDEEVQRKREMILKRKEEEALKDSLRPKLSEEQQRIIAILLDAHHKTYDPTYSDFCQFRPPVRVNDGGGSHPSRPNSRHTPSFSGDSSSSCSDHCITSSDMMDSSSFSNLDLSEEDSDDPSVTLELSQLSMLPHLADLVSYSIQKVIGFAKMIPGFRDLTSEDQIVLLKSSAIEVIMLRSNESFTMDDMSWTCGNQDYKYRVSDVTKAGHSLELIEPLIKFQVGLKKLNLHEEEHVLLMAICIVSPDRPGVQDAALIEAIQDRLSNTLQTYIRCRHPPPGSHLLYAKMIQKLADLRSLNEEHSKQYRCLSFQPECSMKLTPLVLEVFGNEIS
#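 Inhibition of the VDR/SRC2-3 peptide interaction is quantified by fluorescence polarization. Compounds (23 nl, pintool) incubate with the reagents for 2 hours at ambient room temperature.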
# * marks the source's active call; other numbers are inactive results; ? = inconclusive; & = joins results of further samples; [ ] = remark or other dose. % is set by controls: 0 for no effect and ±100 for the full control effect; potency is the fitted concentration of half-maximal effect. The list is partial; count on the stated rates, not on these rows.
SMILES,VDR inh
COc1ccccc1N1CCN(C(=O)c2ccc(-c3ccc(Cl)cc3)o2)CC1,-6%
CN(c1ccccc1)S(=O)(=O)c1ccc(NC(=O)COc2ccccc2)cc1,10%
COc1cccc(-n2nnc3c(=O)n(Cc4cccc(F)c4)cnc32)c1,-9%
c1ccc(-c2noc(-c3ccccc3-c3ccccc3)n2)cc1,6%
CCn1c(NC2CCCCC2)nc2ccccc21,-4%
COc1nc(OC)nc(N2CCC(NC(=O)C(Cc3cccc(OC)c3OC)NC(C)=O)CC2)n1 (stereo not drawn),-16%
CCOC(=O)c1ccccc1NC(=O)N1CCOc2ccc(Cl)cc21,-1%
O=C1Cc2ccccc2Sc2ccccc21,10%
COc1ccc(OC)c(-c2c(=O)n(OCc3ccccc3Br)c3ccccc3[n+]2[O-])c1,-6%
CCOc1ccc(NC(=O)Cc2ccc(NC3=NC4CS(=O)(=O)CC4S3)cc2)cc1 (stereo not drawn),3%
COc1ccc(CCNC(=O)C2CC(=O)N(c3ccc(Br)cc3)C2)cc1OC (stereo not drawn),-14%
Cc1cc(=O)oc2cc(OCC(=O)NC3CCCC3)ccc12,1%
CCOc1ccc(C(=O)SC2=NCCS2)cc1,-3%
O=C(CCS(=O)(=O)c1ccccc1)Nc1ccccc1N1CCOCC1,12%
O=c1c2[nH]c3cccc(Cl)c3c2ncn1CCN1CCCCC1,6%
CS(=O)(=O)N1CCc2cc(C(=O)N3CCN(c4ccccc4F)CC3)ccc21,-9%&6%
CN1CCN(NC(=O)Nc2cc(Cl)cc(Cl)c2)CC1,-9%
O=C(CSC1=NCCN1)C1COc2ccccc2O1 (stereo not drawn),-3%
O=C(CN1CCOCC1)Nc1cccc(Br)c1,14%
CN(C)CC(=O)c1c(N)n(Cc2ccccc2)c(=O)n(C)c1=O,-17%
CCC(C)C(Nc1ncnc2scc(-c3ccccc3)c12)C(=O)O (stereo not drawn),-3%
CC1CCN(C(=O)Cn2c(SCC(=O)Nc3ccc(F)cc3)nc3ccccc32)CC1,-1%
COc1ccc(NS(=O)(=O)c2ccc(C)c(C(=O)NCc3cccnc3)c2)cc1,16%
CCn1nc(CC(=O)Nc2ccc(-n3cnnn3)c(OC)c2)c2ccccc2c1=O,11%
COc1ccc(-n2c(SCC(=O)NCCCN3CCCC3=O)nnc2C(C)N2CCCCC2)cc1 (stereo not drawn),-11%

# Further compounds:
SMILES,VDR inh
Cc1ccccc1N1CCN(S(=O)(=O)c2ccccc2)CC1,-3%&-21%
CN(C(=O)CCNC(=O)Cn1cnc2ccccc2c1=O)c1ccc(F)cc1,-10%
Cc1cccc(OCCCC(=O)Nc2ccc(N(C)C)cc2)c1,-4%
CN(C(=O)CNc1ccccc1Cl)C1CCS(=O)(=O)C1 (stereo not drawn),7%
Cc1ccc(NC(=O)Cn2c(=O)c3cccn3c3ccccc32)c(C)c1,3%
CCc1ccc(S(=O)(=O)c2c(C(=O)c3ccc(C)c(C)c3)cnc3ccccc23)cc1,-9%
Cc1c(C(=O)Nc2ccccc2[N+](=O)[O-])csc1-c1ccccc1,-1%
COc1ccccc1OCCNC(=O)c1ccco1,9%
COc1ccc(C(CC(=O)NCCCN2CCOCC2)NS(=O)(=O)c2ccc(C)cc2)cc1 (stereo not drawn),-3%
CCc1cccc(NC(=O)c2ccc(CN3C(=O)C(C)=C(c4ccc(OC)cc4)S3(=O)=O)cc2)c1,0%
CCOC(=O)C1=NN(C(=O)c2ccccc2)C(O)(c2ccc(C)cc2)C1 (stereo not drawn),-17%
c1ccc(Cc2nnc3sc(C4COc5ccccc5O4)nn23)cc1 (stereo not drawn),?
CCO[C@H]1OC(C(N)=O)=C[C@@H](C2CC2)[C@@H]1CCCO,-12%
CSCCC(NC(=O)c1ccc([N+](=O)[O-])cc1Cl)C(=O)OC(C)C(=O)NCc1ccco1 (stereo not drawn),-4%
CN(C)S(=O)(=O)NCC1CCCN(Cc2ccc(-c3ccccc3)cc2)C1 (stereo not drawn),-14%
COc1ccccc1/C=C/C=N/NC(=O)CN1CCN(Cc2ccccc2)CC1,8%
CCN(C(=O)COC(=O)c1ccccc1O)c1nc2ccccc2s1,2%
Clc1cccc(CNCCCSc2ncccn2)c1,-5%
Cc1ccnc(NC(=O)CCC(=O)N(CC(=O)NC2CCCCC2)Cc2ccccc2)c1,27%
Cc1ccc(NC(=O)CN2CCSc3ccc(S(=O)(=O)N4CCCC4)cc32)cc1C,15%
COCCn1c(=N)c(C(=O)NCc2ccco2)cc2c(=O)n3cc(C)ccc3nc21,0%&1%
O=C(O)Cc1ccc(C(=O)c2ccccc2)s1,-2%
CCC(CO)Nc1nc(CN2CCCCC2)nc2scc(-c3ccccc3)c12 (stereo not drawn),5%
Cc1c(C(N)=O)sc(N)c1C(=O)OC(C)C,-6%
CCCn1nnnc1NCc1cccc(OC)c1OC,-12%

# Reprinted at random: 7 entries already listed.
SMILES,VDR inh
CCN(C(=O)COC(=O)c1ccccc1O)c1nc2ccccc2s1,2%
COc1ccccc1OCCNC(=O)c1ccco1,9%
CCOC(=O)C1=NN(C(=O)c2ccccc2)C(O)(c2ccc(C)cc2)C1 (stereo not drawn),-17%
COc1ccccc1/C=C/C=N/NC(=O)CN1CCN(Cc2ccccc2)CC1,8%
CCCn1nnnc1NCc1cccc(OC)c1OC,-12%
Clc1cccc(CNCCCSc2ncccn2)c1,-5%
CN(C(=O)CNc1ccccc1Cl)C1CCS(=O)(=O)C1 (stereo not drawn),7%

# Continuation:
SMILES,VDR inh
CCOc1ccc(-c2cc(C(=O)O)c3ccccc3n2)cc1,18%
CCc1c(-c2ccccc2)nc2ccccc2c1C(=O)NCc1ccc(C)cc1,4%
CC1CCCN(S(=O)(=O)c2ccc(NC(=O)[C@@H]3CCCN3C(=O)c3cccs3)cc2)C1 (stereo partly drawn),6%
CCCn1c(SCC(=O)c2cc(OC)ccc2OC)nnc1C(C)C,-16%
CN(C)S(=O)(=O)c1ccc(Cl)c(C(=O)NCc2ccco2)c1,-4%
O=c1c(-c2ccc(F)cc2)nc2cnc(N3CCNCC3)nc2n1Cc1cccs1,?
COc1ccc(NC(=O)Nc2ccc(C(C)C)cc2)cc1,6%
CCn1c(=O)n(CC)c2cc(S(=O)(=O)Nc3c(C)cccc3C)ccc21,-4%
Cc1cccc2c(=O)cc(C)n(CC(=O)N3CCOCC3)c12,-3%
Cc1ccc(C2=C(CC(=O)O)C(=O)CC2)cc1,3%
O=c1c(C=NCc2cccnc2)c(C(F)(F)F)[nH]n1-c1nc2ccccc2s1,-4%
Cc1cccc(NC(=O)CSc2nc3ccccc3nc2N2CCCCC2)c1C,-8%
CCN(CC)/C(=N/O)NC(=O)NS(=O)(=O)c1ccc(C)cc1,10%
CCc1c(O)nc(SCC(=O)N2CCOCC2)n(-c2ccccc2)c1=O,98%[activator]
Cc1ccc(-c2nc(N/N=C/c3ccccc3[N+](=O)[O-])c3ccccc3n2)cc1,22%
CC(C(=O)Nc1ccc([N+](=O)[O-])cc1)N1CCN(C/C=C/c2ccccc2)CC1 (stereo not drawn),2%
COc1cccc(NC(=S)NN2CCN(C)CC2)c1,4%
O=C(O)CCCC(=O)Nc1ccc(Br)cc1C(=O)O,-8%
COCCN(C(=O)COC(=O)C1(c2ccccc2)CC1)c1c(N)n(CC(C)C)c(=O)[nH]c1=O,-17%
c1ccc(COc2ccccc2CNC23CC4CC(CC(C4)C2)C3)cc1,8%
COc1c(/C=N/NC(N)=S)c(C)nn1-c1ccccc1,-19%
O=C(c1ccccc1F)N(Cc1ccc2c(c1)OCO2)Cc1cc2cc3c(cc2n2nnnc12)OCO3,0%
COCC(C)N1CCC(n2nccc2NC(=O)c2ccc3c(c2)OCO3)CC1 (stereo not drawn),-6%
C[C@H](CO)N1C[C@H](C)[C@@H](CN(C)C(=O)Nc2ccccc2)Oc2c(cccc2N(C)C)C1=O,1%
CC1CCCCN1S(=O)(=O)c1ccc(C(=O)N2CCOCC2)cc1 (stereo not drawn),-2%

# Following part.
SMILES,VDR inh
CCOc1ccccc1NC(=O)CSc1nccn1-c1ccccc1,-1%
O=C(NCc1cccc(Cl)c1)C1CCC(=O)N(C2CC2)C1 (stereo not drawn),-15%
Cc1ccc(N(CC(=O)NC(C)(C)C)C(=O)CCC(=O)Nc2nccs2)cc1C,2%
NC1=NC(=O)C(c2ccccc2)C(=O)N1 (stereo not drawn),15%
Cn1cccc1C(=O)C(=O)Nc1ccccc1,2%
Cc1c(OCC(N)=O)ccc2c(-c3ccccc3)cc(=O)oc12,5%
CC(C)CCN(CC(=O)NC1CCCC1)C(=O)C(=O)Nc1ccc2c(c1)OCCO2,-3%
COc1cccc(OC)c1C(=O)Nc1nc2ccc(S(C)(=O)=O)cc2s1,8%
CCOc1cc(/C=N/NC(=O)CSc2cccc3cccnc23)ccc1O,13%
Cc1ccc(-c2nc3ccc(NS(=O)(=O)c4ccccc4)cc3[nH]2)o1,12%
Cc1cc2c3nonc3ccc2n1-c1ccccc1,9%
Oc1cccc(CCC2CCCCN2Cc2cn[nH]c2-c2ccc3c(c2)OCO3)c1 (stereo not drawn),2%
Cc1cc(Br)cc(Br)c1OCC(=O)NNC(=O)c1ccoc1C,2%
O=S(=O)(NC1CCCCC1)c1ccc(F)c2ccccc12,4%
O=C(C1CCN(S(=O)(=O)N2CCC3(CC2)OCCO3)CC1)N1CCC(Cc2ccccc2)CC1,-25%
N/C(=N\O)c1ccncc1,12%
CCC(=O)OC1(C)C(=O)C=C2C=C(c3ccsc3)OC=C2C1=O (stereo not drawn),?
COc1ccc(NC(=O)c2cccc(N3C(=O)NC4CC3(C)Oc3ccccc34)c2)cc1 (stereo not drawn),4%
O=C(Nc1ccc(N2CCOCC2)cc1)C1CCCCC1,11%
CCCCNC(=O)[C@H]1C[C@H]1[C@@H](O)[C@H](CO)NC(=O)[C@H](COCc1ccccc1)NC(=O)OC(C)(C)C,-12%
CC(C)(C)c1ccc2c(c1)OC(C(=O)N/N=C\c1ccc[nH]1)CO2 (stereo not drawn),0%
CCn1c(SCC(=O)NCc2ccco2)nnc1C1CCCC1,-4%
Cc1ccc(-n2nnnc2SCC(=O)Nc2nc(-c3ccc(F)cc3)cs2)cc1C,-5%
CC(=O)[C@H]1CCC2C3CC=C4C[C@@H](O)CC[C@]4(C)C3CC[C@@]21C (stereo partly drawn),5%
CCN(CC(=O)Nc1cc(Cl)ccc1C)C(=O)CCOc1ccccc1C,-18%

# Compounds shown so far with an aryl thioether with sulfur outside any ring (10):
SMILES,VDR inh
CC1CCN(C(=O)Cn2c(SCC(=O)Nc3ccc(F)cc3)nc3ccccc32)CC1,-1%
COc1ccc(-n2c(SCC(=O)NCCCN3CCCC3=O)nnc2C(C)N2CCCCC2)cc1 (stereo not drawn),-11%
Clc1cccc(CNCCCSc2ncccn2)c1,-5%
CCCn1c(SCC(=O)c2cc(OC)ccc2OC)nnc1C(C)C,-16%
Cc1cccc(NC(=O)CSc2nc3ccccc3nc2N2CCCCC2)c1C,-8%
CCc1c(O)nc(SCC(=O)N2CCOCC2)n(-c2ccccc2)c1=O,98%[activator]
CCOc1ccccc1NC(=O)CSc1nccn1-c1ccccc1,-1%
CCOc1cc(/C=N/NC(=O)CSc2cccc3cccnc23)ccc1O,13%
CCn1c(SCC(=O)NCc2ccco2)nnc1C1CCCC1,-4%
Cc1ccc(-n2nnnc2SCC(=O)Nc2nc(-c3ccc(F)cc3)cs2)cc1C,-5%

# Next part.
SMILES,VDR inh
CCn1c(SC(C)C(=O)O)nc2sc3c(c2c1=O)CCC3 (stereo not drawn),-16%
CCc1cc2cc(C)ccc2nc1SCC(=O)Nc1cc(C)on1,-8%
Cc1cccc(C)c1NC(=O)CSc1ncc2c(n1)-c1ccc(Cl)cc1N(Cc1ccccc1)S2(=O)=O,8%
CCOC(=O)c1c(S(=O)(=O)NCC(=O)Nc2ccc(C(C)=O)cc2)c(C)n(C)c1C,-5%
CCN(CC)S(=O)(=O)c1cccc(-c2cn3cc(C)ccc3n2)c1,11%
Cc1nnc(SCC(=O)Nc2cccc(S(=O)(=O)N3CCCCC3)c2)s1,2%
COc1cccc(C(c2nnnn2Cc2ccccc2)N2CCN(C3CCCC3)CC2)c1OC (stereo not drawn),-10%
Cc1cc(C)c(NC(=S)N(C)C)cc1C,-1%
O=C(OC1CCCCC1=O)c1ccc(S(=O)(=O)Nc2ccccc2)cc1 (stereo not drawn),23%
O=S1(=O)CCO[C@H]2Cc3ccccc3[C@H]2N1Cc1cccc(Cl)c1,7%
Cn1c(-c2sccc2OCc2ccccc2)n[nH]c1=S,8%
Cn1c(=O)n(C)c2cc(NC(=O)CCl)ccc21,4%
Cc1cc(C(=O)Nc2ccc(F)cc2)c2ccccc2n1,1%
CN(C(=O)COC(=O)CNC(=O)c1ccc(Cl)cc1Cl)c1ccccc1,-9%
CCCC1(C(=O)OC)NC(c2ccc(OC)c(OC)c2)C2C(=O)N(c3cccc(C(C)=O)c3)C(=O)C21 (stereo not drawn),-5%
O=C(NC(Cc1ccccc1)c1ccc2c(c1)OCCCO2)c1ccc(F)cc1 (stereo not drawn),9%
CCCCCCCCOC(=O)c1nc(Cl)c(Cl)c(N)c1Cl,8%
COCCNC(=O)Cn1c(=O)n(C)c2ccccc21,7%
O=C(Cn1c(=O)oc2cc(S(=O)(=O)N3CCCC3)ccc21)N1CCCC1,3%
CC(C)(C)OC(=O)NNC1CC(=O)N(c2ccccc2F)C1=O (stereo not drawn),13%
Oc1cccnc1CN1CCCCC1,-7%
CCN(CC)C(=O)CSc1nc2ccsc2c(=O)n1CCCC(=O)NCCc1ccc(S(N)(=O)=O)cc1,?
